KCNQ2 inh – KCNQ2 potassium channel inhibitors, primary screen, cell-based, CHO-K1, FluxOR thallium flux, B-score (AID 2156); O88943; 20 min; hits give low values; only compounds with negative scores are shown here; some inactives read as strong as hits; B-score at 10 µM; hit rate 1.1% among 310,000;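 active = fluorescence ratio B-score at most minus 3 library SDs, with starting brightness B-score within 2 library SDs, cut at about -5.5 in these data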
Target sequence (O88943 whole entry, looked up): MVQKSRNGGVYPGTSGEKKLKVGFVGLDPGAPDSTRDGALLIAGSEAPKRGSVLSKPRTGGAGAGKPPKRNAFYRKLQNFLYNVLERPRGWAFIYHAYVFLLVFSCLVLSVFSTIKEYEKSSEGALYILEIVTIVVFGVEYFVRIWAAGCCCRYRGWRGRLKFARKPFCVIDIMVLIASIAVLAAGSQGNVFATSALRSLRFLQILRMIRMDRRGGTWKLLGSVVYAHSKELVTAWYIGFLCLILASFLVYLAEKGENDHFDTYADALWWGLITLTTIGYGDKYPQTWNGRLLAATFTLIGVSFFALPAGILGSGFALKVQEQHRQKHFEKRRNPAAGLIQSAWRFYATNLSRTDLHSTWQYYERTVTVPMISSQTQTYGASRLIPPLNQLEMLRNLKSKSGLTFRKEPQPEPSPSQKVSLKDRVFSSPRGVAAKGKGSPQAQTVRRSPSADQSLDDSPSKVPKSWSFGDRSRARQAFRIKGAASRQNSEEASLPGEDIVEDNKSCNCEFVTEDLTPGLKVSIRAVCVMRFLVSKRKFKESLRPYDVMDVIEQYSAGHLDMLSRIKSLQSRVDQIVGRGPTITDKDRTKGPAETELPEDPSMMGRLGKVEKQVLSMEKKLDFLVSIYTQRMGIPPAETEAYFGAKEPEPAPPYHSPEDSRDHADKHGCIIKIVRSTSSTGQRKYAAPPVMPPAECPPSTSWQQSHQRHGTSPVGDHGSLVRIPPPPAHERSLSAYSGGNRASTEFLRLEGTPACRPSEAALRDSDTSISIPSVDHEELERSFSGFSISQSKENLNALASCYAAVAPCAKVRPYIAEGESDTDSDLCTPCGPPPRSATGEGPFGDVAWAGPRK
KCNQ2 inh baseline – also measured in KCNQ2 inh; calls as there; B-score; measured here: initial fluorescence intensity artifact check;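 brightness before thallium and not channel activity; 0 = typical well and far values either way flag optical interference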
Active calls of the source: *; i = inactive. These rows are one share of the data. The share of hits here may be higher or lower than overall.

item	SMILES	KCNQ2 inh	KCNQ2 inh baseline
1	c1ccc(CC(Nc2ccccn2)c2ccccc2)cc1 (configuration not stated)	i	2.2
2	CS(=O)(=O)N(CC(=O)N1CCN(Cc2ccccc2)CC1)c1cccc(F)c1	i	0.02
3	O=C(NCc1cccs1)C1CCCN(C(=O)Nc2ccc(F)cc2)C1 (configuration not stated)	i	-0.02
4	Cc1cnc(C(=O)Nc2ccc(C(=O)N3CCCCC3)cc2)cn1	i	-0.58
5	Cc1cc(N)ccc1-n1nc2ccccc2n1	i	-1.2
6	C=C1CCC[C@]2(C)C[C@H]3OC(=O)C(CN(Cc4ccc(OC)c(OC)c4)CC(C)O)[C@H]3CC12 (some centres not stated)	i	0.04
7	Cn1c(=O)c2c(nc(N3CCC(C(N)=O)CC3)n2CCSc2nc3ccccc3s2)n(C)c1=O	i	-0.6
8	COC(=O)c1ccccc1COn1c(=O)c[n+]([O-])c2ccccc21	i	-2.4
9	COc1ccc2c(c1)Cc1sc(NC(=O)c3cccs3)nc1-2	i	1.8
10	Cc1ccc(/C=C/C(=O)OC(C)C(=O)Nc2ccc(Cl)cn2)o1 (configuration not stated)	i	-0.55
11	CC(C)/C=C/C(=O)N1CCC(N2CCC(C(=O)NCc3ccccn3)CC2)CC1	i	-0.19
12	CCOc1ccc(-c2nnc(N3CCCCC3)c3ccccc23)cc1	i	0.53
13	Cn1cc(C(=O)C(=O)NC2CCCCC2)c2ccccc21	i	0.1
14	COc1ccc(NS(=O)(=O)c2ccc(SC)cc2)cc1	i	-0.04
15	COc1cccc(-n2c(Cn3nc(C(F)(F)F)cc3C)n[nH]c2=S)c1	i	2.4
16	CC(C)(C)c1ccc(OCC(=O)NNC(=O)c2cccnc2)cc1	i	2.6
17	COC(=O)c1ccc2c(c1)SC1=C(CCCC1=O)N2	i	1.3
18	O=C(NCCN1CCN(c2ccccc2)CC1)c1cccc(Br)c1	i	0.67
19	O=C(NCCN1CCCC1)c1ccc(Cn2c(=S)[nH]c3cc4c(cc3c2=O)OCO4)cc1	i	0.09
20	CCOCC(=O)Nc1nc2ccc(OC)cc2s1	i	-0.38
21	Cc1ccc(NC2SC(=O)N(CC(=O)O)C2=O)cc1 (configuration not stated)	i	-1.1
22	Cc1nc2ccccc2c(=O)n1NC(=O)/C=C/c1ccc(Br)cc1	i	-0.01
23	COc1ccc2c(c1)c1nnc(SCC(=O)N3CCCCC3C)nc1n2C (configuration not stated)	i	0.13
24	Cn1cnnc1SCc1ccc(C(=O)n2ncc(C#N)c2N)cc1	i	0.6
25	Cc1ccc(S(=O)(=O)N2CCN(c3ccc([N+](=O)[O-])c(Sc4nncn4C)c3)CC2)cc1	i	-0.04
26	CCSC1=N/C(=C\c2ccc(C)s2)C(=O)S1	i	0.63
27	N=c1n(CCN2CCCCC2)c2ccccc2n1CC(O)c1ccco1 (configuration not stated)	i	-1.1
28	N#CCC(=O)Nc1ccc(C(=O)OCC(=O)Nc2cccc(C(F)(F)F)c2)cc1	i	0.64
29	O=C(NCC1CCCCC1)C1CCN(C(=O)NC2CCCCC2)CC1	i	-0.23
30	Cc1ccc(S(=O)(=O)N(CCC#N)CCN2CCCC2)cc1	i	-1.3

The closing two entries of the part above open the next one:
item	SMILES	KCNQ2 inh	KCNQ2 inh baseline
29	O=C(NCC1CCCCC1)C1CCN(C(=O)NC2CCCCC2)CC1	i	-0.23
30	Cc1ccc(S(=O)(=O)N(CCC#N)CCN2CCCC2)cc1	i	-1.3
31	O=C(O)c1cc(C(=O)C2CCCCC2)c[nH]1	i	0.11
32	O=C(COC(=O)CCc1ccccc1)Nc1cc([N+](=O)[O-])ccc1F	i	-0.85
33	O=C(Nc1nccs1)c1ccc2ccccc2n1	i	-1.5
34	CCCC1=Nc2cc(C(=O)NCCCN3CCOCC3)ccc2Sc2ccccc21	i	-1.9
35	CCOC(=O)CNC(=O)C12CC3CC(C1)CC(c1ccc(C)cc1)(C3)C2	i	0.67
36	Cc1ccccc1NC(=O)c1ccc(NS(=O)(=O)c2cc(C(C)(C)C)cc(C)c2C)cc1	i	1.2
37	CC(C)CCNC(=O)C1(c2cccs2)CCOCC1	i	1.5
38	O=C(NNC(=S)NC(=O)c1ccco1)c1ccc(NC(=O)c2ccccc2)cc1	i	0.06
39	COc1cc(/C=C(\C#N)C(=O)NCC2CCCO2)ccc1OC(C)C (configuration not stated)	i	0.14
40	CCNC(=O)N1C(=O)C2(OCCO2)c2cc(Br)ccc21	i	1
41	O=C(/C=C/c1ccccc1)Nc1ccc(Cl)cn1	i	0.01
42	Cc1cccc(N2CCN(S(=O)(=O)c3c(C(=O)N4CCCCC4)c(C)n(C)c3C)CC2)c1C	i	1.1
43	O=C1C2CCCN2C(=O)N1CCCN1CCN(c2cccc(Cl)c2)CC1 (configuration not stated)	i	0.02
44	CCCCOc1ccc(Cc2c(Cl)nc(SC)nc2N2CCOCC2)cc1	i	-0.04
45	O=C(COCC(=O)N1CCOCC1)N1CCOCC1	i	0.29
46	Cc1cc(Nc2ccccc2)nn1C(=O)c1ccccc1	i	-1.2
47	CC(C)C(=O)C1=Cc2cc([N+](=O)[O-])ccc2OC1N1CCOCC1 (configuration not stated)	i	0.2
48	COc1ccc(C(CC(=O)c2ccc(O)cc2)S(=O)(=O)c2ccc(C)cc2)cc1 (configuration not stated)	i	0.04
49	COc1ccc(Cc2n[nH]c(=S)n(N)c2=O)cc1	i	0.67
50	CCn1c(=O)cc(N2CCN(C(=O)c3ccco3)CC2)[nH]c1=O	i	-1.5
51	COc1ccccc1CCC(=O)OC(C)C(=O)Nc1c(C)n(C)n(-c2ccccc2)c1=O (configuration not stated)	i	0.27
52	S=c1[nH]cc(-c2ccccc2)n1-c1ccccc1	i	-0.68
53	COc1ccc(C(C(=O)NC2CCCC2)N(C(=O)c2ccoc2C)c2ccc(C)cc2)cc1 (configuration not stated)	i	0.31
54	O=C(O)c1ccc(COCC(F)(F)C(F)F)o1	i	0.04
55	Cc1csc(-c2cnn(-c3ccccc3)c2NC(=O)c2cccc(F)c2)n1	i	0.45
56	Cc1cccc(N2CCN(C(=S)c3ccc(-c4ccccc4[N+](=O)[O-])o3)CC2)c1	i	-0.1
57	CCCCN(C(=O)c1ccc([N+](=O)[O-])s1)c1c(N)n(CCCC)c(=O)[nH]c1=O	i	-0.21
58	CN(Cc1ccccc1)C(=O)COC(=O)c1ccc(Cl)c(N)c1	i	0.61
59	C1CCC(CNc2c3c(nc4nnnn24)CCCC3)CC1	i	1
60	N/C(=N\OC(=O)c1cc(-c2ccccc2)nc2ccccc12)c1ccc(Cl)cc1	-6.2*	1.8*

Structures shown so far with an aryl thioether with sulfur outside any ring:
item	SMILES	KCNQ2 inh	KCNQ2 inh baseline
7	Cn1c(=O)c2c(nc(N3CCC(C(N)=O)CC3)n2CCSc2nc3ccccc3s2)n(C)c1=O	i	-0.6
14	COc1ccc(NS(=O)(=O)c2ccc(SC)cc2)cc1	i	-0.04
23	COc1ccc2c(c1)c1nnc(SCC(=O)N3CCCCC3C)nc1n2C (configuration not stated)	i	0.13
24	Cn1cnnc1SCc1ccc(C(=O)n2ncc(C#N)c2N)cc1	i	0.6
25	Cc1ccc(S(=O)(=O)N2CCN(c3ccc([N+](=O)[O-])c(Sc4nncn4C)c3)CC2)cc1	i	-0.04
44	CCCCOc1ccc(Cc2c(Cl)nc(SC)nc2N2CCOCC2)cc1	i	-0.04

Remaining list, next part
item	SMILES	KCNQ2 inh	KCNQ2 inh baseline
61	CC(C)N(Cc1cnn(C)c1)Cc1nc(-c2ccc(Cl)cc2)no1	i	-0.77
62	COc1ccccc1C/C(N)=N/OC(=O)COc1ccc(C)cc1	i	0.44
63	Cn1nccc1C(=O)OCC(=O)Nc1ccc(S(N)(=O)=O)cc1	i	-0.13
64	CCN1CCN(C(=S)Nc2ccc3nc4n(c(=O)c3c2)CCCCC4)CC1	i	-0.02
65	O=c1[nH]c(=O)n(Cc2ccco2)c2c1C(C(F)(F)F)(C(F)(F)F)N=C(C1CCCCC1)N2	i	0.59
66	O=C(Nc1ccon1)c1cccc(S(=O)(=O)N2CCCCCC2)c1	i	1.2
67	CCN(CCN(C)C)C(=O)C1CCN(S(=O)(=O)c2c(C)noc2/C=C/c2ccccc2F)CC1	i	-1.9
68	CCc1ccc2[nH]c(C(=O)Nc3ccc4c(c3)OCO4)cc2c1	i	-0.37
69	CCN(CC)S(=O)(=O)c1ccc(N/N=C/c2ccc(O)cc2)nc1	i	-0.1
70	Cc1ccsc1/C=N/NC(=O)c1ccccn1	i	-2.2
71	Cc1cc(Br)c(OCc2ccc(C(=O)N/N=C3\CC(=O)CC(C)(C)C3)cc2)c(Br)c1	i	-0.01
72	CCc1cccc(CC)c1NC(=S)NCc1nc2ccccc2[nH]1	i	0.19
73	Cc1ccc(S(=O)(=O)N2CCC(C(=O)N3CCC[C@H]3C(=O)NC3CCS(=O)(=O)C3)CC2)cc1 (some centres not stated)	i	-1.7
74	COc1ccc(CCNC(=O)CCNC(=O)N2CC(=O)Nc3ccccc32)cc1	i	0.46
75	COc1cc(/C=N/N2CCN(c3ccccc3OC)CC2)ccc1O	i	-1.8
76	Cc1nc(-n2nnc3ccccc32)c2c3c(sc2n1)CCCC3	i	0.29
77	CC(C)Cc1nnc(NC(=O)CCC(=O)Nc2ccc3cn[nH]c3c2)s1	i	1.9
78	O=C(NCSC1=NCCS1)c1ccccc1	i	0.82
79	CC1CN(C(=O)CCC(=O)NCCCN2CCC(Cc3ccccc3)CC2)c2cc(Cl)ccc2O1 (configuration not stated)	i	0.23
80	CN(C)c1ccc(-c2nc3ccccc3c(=O)[nH]2)cc1	i	0.25
81	Cc1cc(C)n(-c2ccc(C(=O)OCC(=O)c3ccc(Br)s3)cc2)n1	i	0.7
82	O=C(Nc1cccc(F)c1)c1ccc2c(c1)OCCO2	i	0.08
83	Cn1c(CNC(=O)CNC(=O)c2cccc(Cl)c2)cc(=O)n(C)c1=O	i	3
84	CCOc1ccccc1/C=N/NC(=O)CNC(=O)COc1ccccc1	i	0.95
85	Cc1ccc(/C=C/C(=O)NC(=S)N2CCN(C)CC2)cc1	i	-0.94
86	CCOC(=O)/C(=C/c1ccc(Cl)cc1)NC(=O)c1ccco1	i	0.79
87	O=c1oc2ccccc2c(NC(c2ccccc2)c2ccccc2)c1[N+](=O)[O-]	i	-1.3
88	Cc1cc2cc(CNC(=O)CCC(=O)O)ccc2[nH]1	i	0.05
89	COCC1CCN(C(=O)c2cc(COc3ccc(OC)c4ccccc34)on2)C1 (configuration not stated)	i	0.95
90	N#Cc1nc(Cc2cccc3ccccc23)oc1NCc1ccco1	i	-1.8

item	SMILES	KCNQ2 inh	KCNQ2 inh baseline
91	CCOc1ccccc1C(=O)N[C@H](C(=O)OCc1cc(=O)oc2cc(C)ccc12)C(C)C	i	-0.21
92	Cc1nc(N2CCC(C)CC2)c2nnn(Cc3ccccc3)c2n1	i	-1.5
93	Cc1ccc(NC(=O)CCS(=O)(=O)c2ccc3c(c2)NC(=O)C(C)S3)nc1 (configuration not stated)	i	-0.62
94	CC(=O)OC[C@H]1O[C@@H](Sc2cccc3cccnc23)[C@H](OC(C)=O)[C@@H](OC(C)=O)[C@@H]1OC(C)=O	i	-0.34
95	c1ccc2c(N3CCCCCC3)nc(-c3ccncc3)nc2c1	i	0.66
96	CN(C)S(=O)(=O)c1cccc(-c2nn(-c3ccccc3)cc2/C=C(\C#N)c2nc3ccccc3[nH]2)c1	i	-0.39
97	O=C(NCCC1=CCCCC1)C(=O)NCC(c1ccco1)N1CCN(c2ccccc2F)CC1 (configuration not stated)	i	-0.44
98	COC(=O)c1ccc(NS(=O)(=O)NC(=O)c2cn(C)c3ccccc23)cc1	i	0.37
99	CCOC(=O)C(=O)/C(=C\N(C)C)c1onc(-c2c(F)cccc2Cl)c1C(=O)OC	i	-1.8
100	COc1ccccc1CCNC(=O)c1ccc(C)o1	i	-0.35
101	O=C(O)CCNC(=O)/C(=C\c1ccco1)NC(=O)c1ccco1	i	3.9
102	CN1CCN(C(=O)/C(=C/c2cccs2)NC(=O)c2ccco2)CC1	i	-0.04
103	O=C(CSc1n[nH]c(C2CCCC2)n1)NC1CCCC1	i	-0.77
104	Cc1oc(-c2cccc(Cl)c2)nc1CN1CCC(C(=O)NCC2CCCO2)CC1 (configuration not stated)	i	0.33
105	Cc1ccc(C(=O)NCCCc2ccccc2)c(C)c1	i	-0.63
106	CCOC(=O)c1cccc(NC(=O)CCNS(=O)(=O)c2cccc3nonc23)c1	i	-0.69
107	CC(=O)Nc1ccc(S(=O)(=O)N/N=C/c2ccc(C)o2)cc1	i	0.24
108	CCCC(=O)NCc1nc2ccccc2n1CC(=O)c1ccccc1	i	0.84
109	CCN(c1ccc(OC)cc1)S(=O)(=O)c1ccc2c(c1)CCN2C(=O)CCC(=O)O	i	-0.05
110	CCOC(=O)C1CCCN(S(=O)(=O)c2c(C)c(C)cc(C)c2C)C1 (configuration not stated)	i	0.87
111	COC(=O)C1CCN(C(=O)C23CCC(C)(C(=O)O2)C3(C)C)CC1 (configuration not stated)	i	0.7
112	COc1ccccc1NC(=O)CSc1sc2c(O)cc(=O)[nH]c2c1C#N	i	1.5
113	CCC1CC(C)(C(=O)Nc2ccc(S(N)(=O)=O)cc2)OC1=O (configuration not stated)	i	0.2
114	CC(C)Oc1ccc(S(=O)(=O)N2CCOCC2)cc1NC(=O)c1cc([N+](=O)[O-])ccc1N1CCOCC1	i	0.85
115	CN(C(=O)COC(=O)c1cccc(S(=O)(=O)N2CCOCC2)c1)C1CCS(=O)(=O)C1 (configuration not stated)	i	-0.01
116	COc1ccccc1NC(=O)Cc1csc(N)n1	i	0.3
117	COc1ccc(C(C[N+](=O)[O-])c2c(C)[nH]c3ccccc23)cc1OC (configuration not stated)	i	0.5
118	Cc1sc2nc(SCCN(C)C)n(-c3ccccc3)c(=O)c2c1-c1ccc(F)cc1	i	-0.99

Some values from the entries so far:
entry 92 in KCNQ2 inh baseline reads -1.5
entry 94 in KCNQ2 inh baseline reads -0.34
entry 91 in KCNQ2 inh baseline reads -0.21
entry 111 in KCNQ2 inh baseline reads 0.7
entry 112 in KCNQ2 inh baseline reads 1.5

Screening results: PubChem, Johns Hopkins Ion Channel Center
